High-throughput results from PubChem BioAssay.
CtBP-E1A blk – blocks the CtBP interaction with E1A. AID 651724. AlphaScreen GST-E1A/His-CtBP binding, 1536-well; hits give low values; control for the full effect not named in the record. 340,000 compounds, 0.49% hits. activity change, % (no concentration beside the values); in the data active means activity change below about -65%; inconclusive means about -30% to -65%; inactive means above about -30%; also: % is scaled to controls: 0 for no effect and ±100 for the full control effect
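AlphaScreen with 125 nM GST-E1A and 125 nM His-CtBP (5X stocks) in Tris pH 8.0, 300 mM NaCl, BSA, Tween 20, TCEP. Compounds preincubated 2 h at 37 deg C, then glutathione donor/nickel acceptor beads added for 1 h at 37 deg C in dark.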
D2 PAM – human D2 receptor positive allosteric modulation | P14416 | DiscoveRx D2 beta-arrestin cells, luminescence, 90 min; 100% = 57 uM dopamine signal | potentiation, % (test concentration not listed) | 360,000 compounds, 0.23% hits | AID 624464; active = potentiation of 50% or more; inconclusive = 30% to 50%; inactive = 30% or less;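 also: compound concentration not given in the record; tested on top of an EC20 dose of dopamine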
Target sequence (P14416 whole entry, looked up): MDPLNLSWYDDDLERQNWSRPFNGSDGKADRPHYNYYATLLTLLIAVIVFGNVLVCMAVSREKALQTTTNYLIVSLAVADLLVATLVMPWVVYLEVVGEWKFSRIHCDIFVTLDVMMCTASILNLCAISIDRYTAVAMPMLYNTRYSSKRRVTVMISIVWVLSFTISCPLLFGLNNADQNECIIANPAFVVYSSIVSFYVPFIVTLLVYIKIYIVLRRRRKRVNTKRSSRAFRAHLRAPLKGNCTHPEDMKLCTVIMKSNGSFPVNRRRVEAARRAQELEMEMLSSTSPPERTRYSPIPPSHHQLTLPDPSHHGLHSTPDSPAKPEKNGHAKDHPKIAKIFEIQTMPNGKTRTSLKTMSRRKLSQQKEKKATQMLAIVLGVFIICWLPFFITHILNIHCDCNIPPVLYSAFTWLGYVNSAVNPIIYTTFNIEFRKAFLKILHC
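PathHunter D2 cells, attached overnight at 37 deg C, received compound in DMSO plus dopamine at EC20 (50 nM final) for 90 min at 37 deg C. Beta-arrestin recruitment was read as luminescence after 1 h with detection reagent at ambient temperature.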
Six1-Eya2 blk – blocks human Six1 binding to Eya2 | Q15475+O00167 | AID 651725 | 360,000 compounds, 0.56% hits | AlphaScreen GST-Six1/His-Eya2 binding, biochemical; hits give low values; control for the full effect not named in the record | activity change, % (no concentration beside the values); in the data active = activity change below about -65%; inconclusive = about -30% to -65%; inactive = above about -30%; also: % is scaled to controls: 0 for no effect and ±100 for the full control effect
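Homogeneous AlphaScreen proximity assay pairing GST-Six1 with His-tagged Eya2 (added as 5X mix: 250 nM and 500 nM) in 50 mM Tris pH 8.0, 300 mM NaCl, 1 mM TCEP. Glutathione donor and nickel acceptor beads; 1 h, 37 °C, dark.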
Sfp PPTase inh – Sfp phosphopantetheinyl transferase inhibition; Q9F4F7; Biochemical Sfp PPTase activity, qHTS; Potency, µM, for the others: max response, negative = inhibition, most hits filed as inhibitors; 310,000 compounds, 3.5% hits; AID 1490; active = well fitted inhibition curve with a large enough effect; inconclusive = small, poorly fitted or top-dose-only effect, or another doubt; inactive = no such curve, though single readings can be large or run the other way;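 also: the enzyme is Sfp with the accession as filed and its product quenches rhodamine fluorescence; potency is read from the fitted curve at half-maximal effect; 0% = enzyme reaction without inhibitor and -100% = no enzyme wells; top concentration of the series not given in the record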
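Sfp 15 nM + cpd, 15 min RT; start w/ rhodamine-CoA 5 uM, BHQ-2-YbbR 12.5 uM (final); 50 mM Hepes pH 7.6, 10 mM MgCl2, 0.01% NP-40, 0.01% BSA; read 525/598 nm at 0 and 30 min.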
PINK1 expr mod – changes PINK1 expression. AID 624263. PINK1 immunofluorescence, high-content cytometry, 24 h. 410,000 compounds, 0.2% hits. Potency, µM (highest dose often 76.6 µM), for inactives: at the highest dose activation (PINK1 increase), most hits filed as activators; active = well fitted activation curve with a large enough effect; inconclusive = small, poorly fitted or top-dose-only effect; inactive = flat fitted curve, though single readings scatter; cell line not stated here;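 also: potency is read from the fitted curve at half-maximal effect; % of control where 0% means no effect; nearly all actives have a fitted effect of over 65% in size; a mitochondrial uncoupler was the plate control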
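Stable cell line treated 24 h with compounds at 5 concentrations (CCCP controls), then fixed and immunostained for PINK1 plus nuclear and cell stains; PINK1 immunofluorescence quantified by laser-scanning microplate cytometry.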
D2 agonist – agonists of human D2 dopamine receptor (beta-arrestin). DiscoveRx PathHunter D2 beta-arrestin, luminescence, 90 min; 100% = 57 uM dopamine signal. activation, % (no concentration beside the values). 360,000 compounds, 0.084% hits. AID 624465; in the data active = activation above about 40%; inconclusive = about 15% to 40%; inactive = below about 15%; also: compound concentration not given in the record; the text of the record calls up to 30% inactive
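DiscoveRx PathHunter D2 beta-arrestin cells (2,100/well) attached overnight, then compound-stimulated 90 min at 37 C in HBSS/10 mM HEPES/0.1% Tween-20 buffer; beta-galactosidase complementation read by luminescence after 1 h at ambient temperature. Dopamine 57 uM final (EC100) as control.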
TRPV1 PAM – enhances activation of the human vanilloid receptor TRPV1. Q8NER1. TRPV1-expressing cells, Fluo-8 calcium influx, capsaicin EC20 potentiation; host cell line not named in the record; control for the full effect not named in the record. potentiation, % at 8.33 µM. 320,000 compounds, 0.02% hits; active means potentiation above 80%; inconclusive means 30% to 80%; inactive means below 30%; also: 0% is about no effect
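Fluo-8 calcium influx in TRPV1-expressing cells, kinetic read (ex 480/em 520 nm). Compound added and read 3 min for agonist activity, followed by capsaicin at EC20 final and 2 min further read for enhancement.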
An asterisk follows results filed as active; ? = inconclusive; . = no result given; & = joins results of further samples; [ ] = another dose, or the depositor's remark. Hits appear at their usual frequency. Share with any hit: about 3.7%.

SMILES,CtBP-E1A blk,D2 PAM,Six1-Eya2 blk,Sfp PPTase inh,PINK1 expr mod,D2 agonist,TRPV1 PAM
O=C(COC(=O)c1ccc2c(c1)C(=O)N(c1cccc3ncccc13)C2=O)c1ccc(Cl)cc1,-7,-3,2,28µM*,10.0%,1.0,-22
O=C(COC(=O)CNS(=O)(=O)c1c(Cl)cccc1Cl)Nc1ccccc1Sc1ccccc1,1,-1,2,12%,0.7%,0.5,-1
O=C(Cc1cccs1)N(c1ccc(Cl)cc1)C1C=CS(=O)(=O)C1 (stereo unspecified),2,-9,2,-13%,-4.6%[38.3 µM],-0.2,0
Cc1ccc(-c2nc3ncccc3o2)cc1NC(=O)c1ccco1,10,-3,0,.,-1.2%,-0.8,.
COC(=O)Nc1ccc(S(=O)(=O)Nc2ccc(C(=O)O)cc2)cc1,-16,-1,-2,19%,0.7%,0.5,2
CCC1=C/C(=C/N(C)c2ccccc2)C(=O)S1,-9,-11,-5,50µM*,-1.6%,-2.4,-9
CCOC(=O)c1nn(-c2sc(C(=O)OC)c(C)c2C(=O)OC)cc1O,7,-11,-2,2%,.,-2.4,-3
Cn1nc(C(C)(C)C)c([N+](=O)[O-])c1C(=O)NCCO,8,-7,2,-11%,2.5%,1.0,-8
COc1ccccc1NC(=O)c1ccc2c(c1)N(CC#N)C(=O)C(C)(C)O2,0,3,16,6%,3.7%,5.0,-8
Cc1ccc(N(CC(=O)N2CC(=O)Nc3ccccc32)S(=O)(=O)c2ccc3c(c2)OCCO3)cc1,-12,-10,-6,8%,0.7%[38.3 µM],-2.0,?
CC(C)(C)c1ccc(OCC(=O)N2CCCCCC2)c(Br)c1,-11,-4,-2,0%,-1.4%,0.8,4
CCOC(=O)/C(C#N)=C\C=C1C=CN(C)C=C1,-6,-11,3,2%,18%,-5.9,-10
Cc1[nH]n(-c2ccccc2)c(=O)c1/C=N/O,8,13,-1,-17%,.,-1.3,-4
COc1cc(/C=C(\C#N)c2nc3ccc(C)cc3[nH]2)cc([N+](=O)[O-])c1O,-75*,-8,-73*,3%,8.5%,-5.8,3
CS(=O)(=O)N1c2ccccc2[C@]2(Br)C[C@H]3C(=O)N[C@@H](Cc4ccccc4)C(=O)N3[C@H]12,0,-12,-3,.,1.4%,-1.6,.
CC(=O)Nc1ccc(NC(=O)C(c2ccccc2)c2ccccc2)cc1,6,-6,3,16%,8.9%,2.9,5
Cc1occc1C(=O)NCc1cccs1,0,-5,-6,2%,0.7%,0.9,?
Cc1oc(-c2ccccc2)cc1C(=O)Nc1ccc(N(C)C)cc1,?,6,?,-14%,0.4%,-2.1,-49
Cc1nnc(SCC(=O)N2CCN(C(=O)c3ccco3)CC2)n1C,8,-3,9,.,2.0%,5.6,1
CC1CCN(c2ccc3c(c2)S(=O)(=O)c2ccccc2C3=O)CC1,50,-2,37,.,12%,-3.1,.
O=C(OCC(=O)N1CCN(c2ccccc2)CC1)c1nc(Cl)ccc1Cl,-2,7,-8,.,1.5%,-1.9,-13
CCOC(=O)C1(C)Oc2ccccc2C(C(=O)OC)=C1C(=O)OC (stereo unspecified),2,.,0,-17%,0.2%,-0.7,.
COCc1cc(C)n(CC(=O)Nc2cccc(C)c2)c(=O)c1C#N,7,-1,-1,18%,1.1%,0.6,0
COc1ccc(C2=CC3=C(Br)C(=O)C(C)(OC(=O)c4ccc(Cl)nc4)C(=O)C3=CO2)cc1 (stereo unspecified),26,0,2,-24%&-8%,14µM*,1.5,-24
CSc1nc(C)cc(OCCNS(=O)(=O)c2ccc(C)cc2)n1,0,3,2,.,24%[38.3 µM],-1.6,.
Cc1ccc(S(=O)(=O)N2CCCCC2)cc1NC(=O)C1CC(=O)N(Cc2ccccc2)C1 (stereo unspecified),-19,-4,-17,2%,0.5%,-6.1,-8
Cc1cccc(Cl)c1OCCN1CCCC1,-5,-8,2,-2%,1.3%,4.7,12
O=C(CN1C(=O)C2C3C=CC(C4CC34)C2C1=O)Oc1ccccc1 (stereo unspecified),2,-3,2,-2%,3.6%,0.0,7
COC(=O)c1ccc(COC(=O)c2cnccn2)cc1,5,-1,2,6%,12%,-5.1,10
c1ccc(-c2ccc(C3=Nn4c(Cn5nnc6ccccc65)nnc4SC3)cc2)cc1,-9,-34,-12,28µM*,0.3%,-2.4,12
Cc1nnc(SCC(=O)n2c3c(c4ccccc42)CCCC3)s1,-3,-9,-2,-3%,1.2%,-0.2,-8
COc1ccc(NC(=O)CSc2ccccn2)cc1,2,-16,0,-4%,1.2%,-5.1,9
COc1ccc2c(c1)CCc1c(C(=O)N3CCc4ccccc4C3)noc1-2,14,1,0,-5%,?,-0.6,-17
O=C(N/C(=C\c1cccc([N+](=O)[O-])c1)C(=O)N1CCCCC1)c1cccs1,1,-9,2,14%,-4.6%[38.3 µM],-1.8,-12
CCC(O)(CC)C(=O)N/N=C/c1cc(Br)cc(Br)c1O,?,-17,?,26%,0.4%,-6.3,0
CCOc1ccc(-c2nnn(CC(=O)Nc3ccccc3OC)n2)cc1OCC,12,-5,2,-12%,?,-0.5,1
CN(CC(=O)Nc1ccc(N2CCOCC2)cc1)CC(=O)Nc1ccc([N+](=O)[O-])cc1Br,4,-5,-2,-5%,2.7%,1.6,-4
COc1ccc(NC(=O)c2sccc2C)c([N+](=O)[O-])c1,-20,29,-24,4%,-0.6%,-0.2,6
CCCNC(=O)c1cc(-c2ccc(Br)cc2)on1,11,-11,4,17%,5.0%,-3.7,0
O=C1CC(=C2c3ccccc3-c3ccccc32)C(=O)N1CCN1CCN(c2cccc(Cl)c2)CC1,-17,-28,-22,.,-0.2%,-3.6,.

Some of these compounds in order of their number in CtBP-E1A blk, largest number first:
mol	CtBP-E1A blk	D2 PAM	Six1-Eya2 blk	Sfp PPTase inh	PINK1 expr mod	D2 agonist
COCc1cc(C)n(CC(=O)Nc2cccc(C)c2)c(=O)c1C#N	7	-1	-1	18%	1.1%	0.6
COC(=O)c1ccc(COC(=O)c2cnccn2)cc1	5	-1	2	6%	12%	-5.1
COc1ccc(NC(=O)CSc2ccccn2)cc1	2	-16	0	-4%	1.2%	-5.1
O=C(N/C(=C\c1cccc([N+](=O)[O-])c1)C(=O)N1CCCCC1)c1cccs1	1	-9	2	14%	-4.6%[38.3 µM]	-1.8

More compounds.
| compound | CtBP-E1A blk | D2 PAM | Six1-Eya2 blk | Sfp PPTase inh | PINK1 expr mod | D2 agonist | TRPV1 PAM |
| --- | --- | --- | --- | --- | --- | --- | --- |
| Cc1nn(-c2ccccc2)c(C)c1/C=N/O | -2 | -3 | 4 | 12% | -1.9% | -0.1 | 4 |
| CN(C)c1ccc(-c2nnc(-c3cccs3)o2)cc1 | . | ? | 4 | 4% | -1.1% | 7.3 | 0 |
| Cc1cccc(CCNC(=O)CCS(=O)(=O)c2cc3c(cc2Cl)NC(=O)CO3)c1 | 3 | -4 | 4 | 21% | -1.5%&-1.4% | -1.4 | -18 |
| Cc1cc(C)c2nc(NNC(=O)c3ccc(S(=O)(=O)N4CCc5ccccc5C4)cc3)sc2c1 | -18 | 4 | -1 | -2% | 0.8% | 1.0 | 12 |
| CC1(C(=O)Nc2ccccc2)Cc2c(-c3cccc(C(N)=O)c3)ccnc2O1 (stereo unspecified) | -1 | -5 | -4 | . | 1.6% | -1.2 | . |
| CCOC(=O)c1cnc(SC)nc1N1CCCC1 | 0 | 2 | -3 | -10% | 0.3% | 2.6 | -10 |
| COc1ccccc1N1CCN(C(=O)Nc2ccc([N+](=O)[O-])cc2)CC1 | -6 | -4 | 2 | 8% | -1.0% | -3.0 | -19 |
| O=C(NC(C(=O)N/N=C/c1cccc2ccccc12)c1n[nH]c(=O)c2ccccc12)c1ccccc1 (stereo unspecified) | -15 | -18 | -14 | 4% | 1.1% | -4.5 | 2 |
| COc1cccc(N2C(C(C)=O)=NN(c3ccccc3)C2c2ccc(N3CCOCC3)cc2)c1 (stereo unspecified) | 2 | -17 | 3 | -10% | -0.6% | -1.4 | -7 |
| COc1cc(/C=N/NC(=O)c2ccncc2)ccc1Oc1ccc([N+](=O)[O-])cn1 | 3 | -7 | -1 | 21% | 1.3% | 0.8 | -11 |
| CC(C(=O)Nc1ccc2c(c1)OCCO2)N1CCN(C(=O)c2ccco2)CC1 (stereo unspecified) | 4 | 0 | -17 | 24% | -1.6% | -2.4 | -1 |
| Cc1cccc(CCNC(=O)C2CCCN(c3cnccn3)C2)c1 (stereo unspecified) | 0 | 2 | 3 | -1% | -1.3% | -6.6 | 3 |
| COC(=O)c1ccc(NC(=S)NC2CCCCC2C)cc1 (stereo unspecified) | 16 | -17 | -2 | 10% | ? | 0.8 | -12 |
| Cc1ccc(C(=O)N/N=C/c2c[nH]c3ccccc23)o1 | 17 | -5 | 1 | 16% | -0.4% | 2.4 | 7 |
| Cc1ccccc1S(=O)(=O)Nc1nc2ccccc2nc1N1CCOCC1 | 4 | -2 | 10 | 13% | 1.6% | -2.5 | 3 |
| C=C(C)C1CC=C(C)/C(=N/NC(=O)CNc2ccc(OCC)cc2)C1 (stereo unspecified) | 4 | -30 | -5 | 1% | 9.0% | -4.2 | 9 |
| O=C(Nc1cccnc1)c1ccc2c(c1)OCO2 | -1 | -7 | -1 | 11% | 2.8% | -2.7 | -17 |
| CCC1(c2ccc(F)cc2)NC(=O)N(CC(=O)N2CCN(C(=O)c3ccco3)CC2)C1=O (stereo unspecified) | 0 | -16 | 7 | . | -0.6% | -1.2 | . |
| O=C(OCc1nc2scc(-c3ccccc3)c2c(=O)[nH]1)c1cc([N+](=O)[O-])ccc1Cl | -10 | -4 | -12 | -60% | -1.9% | 1.0 | 2 |
| CN1OC[C@@H]2CN(C(=O)CCc3ccccc3)[C@H](c3cccc(-c4ccccc4)c3)C[C@@H]21 | -23 | -9 | -24 | . | -0.7% | -2.2 | . |
